SARS PLpro yeast – inhibitors of SARS-CoV papain-like protease in yeast; S. cerevisiae expressing SARS-CoV PLpro, growth rescue; control for the full effect not named in the record; hit rate 0.19% among 330,000; AID 485353; Potency, µM (series often up to 32.9 µM), inactives show at the top dose activity, positive = growth rescue; note: 0% is about no effect; nearly all actives have a fitted effect of over 55% in size; growth read by luminescence after 48 h
NS1 inh – blocks influenza NS1 protein function; S. cerevisiae slowed by influenza A NS1, growth recovery by OD600; Potency, µM (highest dose often 46.1 µM), for the others: top-dose activity, positive = more growth; hit rate 0.4% among 270,000; note: actives are rising curves; nearly all actives have a fitted effect of over 50% in size
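Compounds were scored for reversing the slow growth caused by influenza A NS1 in S. cerevisiae, measured by optical density at 600 nm. Assay medium contained 2% galactose at pH 6.0; NS1-free yeast of the same strain were the positive control.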
Cruzain inh Det – inhibitors of Trypanosoma cruzi cruzain with detergent | P25779 | purified cruzain, Z-FR-AMC fluorescence, 0.01% Triton | AID 1478 | Potency, µM, without a hit: max response, negative = inhibition, most hits filed as inhibitors | hit rate 0.43% among 200,000; active = well fitted curve in the direction sought with a large enough effect; inconclusive = small, poorly fitted or top-dose-only effect, or another doubt; inactive = no such curve, though single readings can be large; an effect the other way counts as inactive or inconclusive;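 note: plate controls were neutral wells for no effect and buffer without enzyme for full effect; nearly all actives have a fitted effect of over 40% in size; top concentration of the series not given in the record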
Target sequence (P25779 123-467 limits assumed): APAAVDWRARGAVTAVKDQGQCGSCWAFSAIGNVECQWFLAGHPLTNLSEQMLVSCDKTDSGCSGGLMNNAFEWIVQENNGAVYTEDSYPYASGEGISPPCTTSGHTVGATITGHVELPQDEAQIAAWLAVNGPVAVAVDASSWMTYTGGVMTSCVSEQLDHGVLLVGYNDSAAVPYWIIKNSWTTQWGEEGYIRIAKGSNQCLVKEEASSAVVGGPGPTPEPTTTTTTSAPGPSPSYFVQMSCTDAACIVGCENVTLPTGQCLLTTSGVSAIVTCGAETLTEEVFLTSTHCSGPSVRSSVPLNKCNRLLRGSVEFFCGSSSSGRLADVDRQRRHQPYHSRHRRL
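15 min RT preincubation of 1.5 nM cruzain with compound, then 2 uM Z-FR-AMC added; kinetic AMC fluorescence, 60 s delta. Triton X-100 0.01%, pH 5.5.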
Cruzain noTriton – inhibitors of Trypanosoma cruzi cruzain without detergent; Potency, µM, for the others: max response, negative = inhibition, hits mostly inhibitors; hit rate 2.3% among 200,000; purified cruzain, Z-FR-AMC fluorescence, no detergent; P25779; active = well fitted curve in the direction sought with a large enough effect; inconclusive = small, poorly fitted or top-dose-only effect, or another doubt; inactive = no such curve, though single readings can be large; an effect the other way counts as inactive or inconclusive;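 note: plate controls were enzyme without inhibitor for no effect and buffer without enzyme for full effect; nearly all actives have a fitted effect of over 40% in size; top concentration of the series not given in the record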
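Detergent-free condition (0.00005% Triton X-100) in acetate buffer pH 5.5 with DTT. 1.5 nM enzyme and compound were pre-mixed 15 min, then 2 uM Z-FR-AMC substrate added; reaction progress from fluorescence change between first and third reads (60 s).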
RE007 growth inh – less growth of the S. pombe RE007 Vpr strain; S. pombe RE007 Vpr strain, BacTiter-Glo ATP luminescence, 24 h; control for the full effect not named in the record; hit rate 0.21% among 360,000; Potency, µM (series often up to 92.2 µM), for inactives: top-dose activity change, negative = less growth; AID 651644; active = well fitted falling curve with a large enough effect; inconclusive = small, poorly fitted or top-dose-only effect; inactive = no such curve, though single readings can be large or run the other way;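 note: % is set by controls: 0 for no effect and ±100 for the full control effect; nearly all actives have a fitted effect of over 50% in size; the assay follows cell death caused by Vpr and the record does not say whether a fall means rescue or toxicity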
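Fission yeast strain RE007, carrying one chromosomally integrated HIV-1 vpr copy, was seeded at OD 0.01 in PMG+AL medium with 23 nL pinned compound. After 24 h at 30 °C and 99% humidity, viability was read by BacTiter-Glo luminescence.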
2A StopGo – lowers the luciferase signal of an FMDV 2A StopGo reporter. human cells with a luciferase reporter of 2A StopGo recoding; control for the full effect not named in the record. hit rate 1.2% among 410,000. AID 1159524. Potency, µM (doses to about 57.9 µM), for the others: top-dose signal change, negative = less light; active = well fitted falling curve with a large enough effect; inconclusive = small, poorly fitted or top-dose-only effect; inactive = no such curve, though single readings can be large or run the other way; tested in HEK293T cells; note: % is set by controls: 0 for no effect and ±100 for the full control effect; nearly all actives have a fitted effect of over 45% in size; luciferase light after 4 h
LASV entry inh – inhibitors of Lassa virus binding or cell entry; hit rate 1.2% among 300,000; Lassa virus pseudotype entry inhibition, cell reporter; control for the full effect not named in the record; Potency, µM (highest dose often 37.9 µM), without a hit: at the top dose activity change, negative = inhibition, most hits filed as inhibitors; active means well fitted inhibition curve with a large enough effect; inconclusive means small, poorly fitted or top-dose-only effect, or effect the other way; inactive means flat fitted curve, though single readings scatter; tested in HEK293 cells; note: % is set by controls: 0 for no effect and ±100 for the full control effect; nearly all actives have a fitted effect of over 50% in size; luciferase read-out
Marburg entry inh – blocks Marburg virus binding to or entry into cells; Marburg virus pseudotyped entry inhibition, cell reporter; control for the full effect not named in the record; about a third of the inactives were read at about 46 µM; Potency, µM (doses to about 37.8 µM), inactives show at the highest dose activity change, negative = inhibition, usual class: inhibitors; hit rate 1.8% among 300,000; AID 540276; active = well fitted inhibition curve with a large enough effect; inconclusive = small, poorly fitted or top-dose-only effect, or effect the other way; inactive = flat fitted curve, though single readings scatter; tested in HEK293 cells; about a fifth of its hits are not listed in these tables; note: % is set by controls: 0 for no effect and ±100 for the full control effect; luciferase read-out
* hit, by the source's call; u = inconclusive; x = not tested or not shown; & = joins results of further samples; [ ] = dose if it differs, or a comment. Unless noted, calls come from the whole dose curve; as a rule, active means well fitted rising curve with a large enough effect; inconclusive means small, poorly fitted or top-dose-only effect; inactive means no such curve, though single readings can be large or run the other way. Potency is the fitted concentration of half-maximal effect.

SMILES	SARS PLpro yeast	NS1 inh	Cruzain inh Det	Cruzain noTriton	RE007 growth inh	2A StopGo	LASV entry inh	Marburg entry inh
Cc1c([N+](=O)[O-])c([N+](=O)[O-])nn1CC(=O)NCc1cccnc1	0%	0%	x	x	7%	-14%	1%	u
Fc1ccccc1N1CCN(CCCNc2ccc3nncn3n2)CC1	-2%	-1%	3.0%	-8%	-2%	-9%	x	x
O=c1oc2ccccc2cc1-c1nc(-c2cccs2)cs1	-10%	-1%	-2.8%	u	8%	43%[activator]	16%	18%
CN1C(=O)NC(NC(=O)C2CCCCC2)(C(F)(F)F)C1=O (stereo not drawn)	0%	u	4.4%	-9%	1%	-13%	6%	25%
O=C(O)c1cc(-c2ccc(Cl)cc2)n(-c2ccccc2)n1	-2%	x	x	x	10%	-8%	13%[46.1 µM]	0%[46.1 µM]
COc1cc(C(=O)NNC(=O)C2CC2)cc(OC)c1OC	-2%	6%	x	x	2%	-14%	x	x
Cc1ccc(C2N(c3ccc(F)cc3)C(=O)C3CCCN32)cc1 (stereo not drawn)	3%	1.8µM*	3.4%	-3%	4%	0%	x	x
Cc1sc2nc(COC(=O)c3cccc(S(=O)(=O)N(C)c4ccccc4)c3)[nH]c(=O)c2c1C	0%	18%	x	x	1%	-17%	u	u
CCOC(=O)N1CCC(N(CCN(C)C)C(=S)Nc2ccc(F)c(Cl)c2)CC1	2%	x	x	x	9%	-23%	-6%	-4%
O=C(Nc1cccc(C(F)(F)F)c1)c1cccc(NS(=O)(=O)c2ccc(O)c(C(=O)O)c2)c1	1%	0%	x	x	10%	-5%	u	17%
N#C/C(=C\c1ccc(O)c(O)c1)C(N)=S	x	x	u	-21%	x	-25%&0%	x	u
CCC(=O)Nc1cccc(NC(C)=O)c1	-3%	6%	5.5%	10%	x	x	x	-1%
Cc1cc(Cl)ccc1NC(=O)CN1CCC(C(O)(c2ccccc2)c2ccccc2)CC1	-6%	-21%	-1.0%	0%	-3%	-21%	u	u
CCCCC(=O)Nc1ccc(C(=O)N2CCC(C(=O)OCC)CC2)cc1	-3%	-4%	4.4%	5%	-14%[3.69 µM]	10%	-2%	3%
CC1CCCC(NC(=O)CN2C(=O)NC(C)(c3ccccc3)C2=O)C1C (stereo not drawn)	4%	x	x	x	-12%	0%	19%	-14%
O=C(Cc1ccccc1)NNC(=O)C1CCCC1	0%	4%	x	x	-5%	-9%	4%	13%
COc1ccc(N2CCN(C(=O)c3cc4c(s3)-c3ccccc3OC4)CC2)cc1	-1%	3%	1.5%	-7%	1%	-2%&-7%	x	21%[46.1 µM]
O=C(Nc1ccc(N2CCCCC2)c(Cl)c1)c1ccc(N2CCOCC2)c([N+](=O)[O-])c1	-1%	14%	-2.6%	-1%	8%	x	u	u
CC(C)(C)C(=O)NC1CCN(S(=O)(=O)c2ccc(C(F)(F)F)cc2)CC1	3%	3%	6.3%	-20%	-9%	x	-1%	0%
CC(=O)CCc1c(C)[nH]c2ccc(NC(C)=O)cc2c1=O	-3%	1%	-0.2%	-2%	-3%	x	4%	22%
Clc1cnc(Nc2cccnc2)c(Cl)c1	-20%	-21%	x	x	-3%	15%	16%	0%[46.1 µM]
CCN(CC)S(=O)(=O)c1ccc2c(c1)c(=O)c(C(=O)N1CCN(c3cccc(C)c3)C(C)C1)cn2C (stereo not drawn)	x	x	-8.4%	u	x	-7%	-5%[46.1 µM]	-5%[46.1 µM]
O=C(CCNS(=O)(=O)c1ccc(Br)s1)NCc1ccccc1	3%	x	x	x	-4%	-6%	2%	2%
COc1ccc(N(CC(=O)NCCOc2ccccc2)S(=O)(=O)c2ccc(C)cc2)cc1	-1%	-13%	x	x	19%	-18%	-14%[46.1 µM]	u
CC(=O)c1cnc(Nc2nc(C)c3ccc(C)cc3n2)nc1C	-3%	-24%	-1.8%	-4%	16%	-4%	-9%	-7%
CCOc1ccc(CN2CCCC(CO)(Cc3ccccc3F)C2)cc1 (stereo not drawn)	-6%	25%	x	x	-20%	-25%	x	x
OCCN(CCO)CC(O)COc1ccc(Br)cc1 (stereo not drawn)	-2%&0%	1%&4%	x	x	12%&29%	9%&-9%	x	x
CCN(CC)C(=O)Oc1ccccc1NC(C)=O	-1%	11%	3.6%	-6%	17%	-6%	-18%	27%
COC(=O)C1=C(c2ccccc2)c2ccccc2S(=O)(=O)N1CC(=O)Nc1ccc(F)c(F)c1	x	x	-8.6%	-14%	x	-13%	11µM*	u
CN(c1nc2ccccc2nc1Cl)S(=O)(=O)c1ccccc1	-3%	-5%	x	x	7%	8%	7%	9%
COc1cccc(-n2c(C)c3c(OC)cccc(=O)c3c2C)c1	2%	u	x	x	15%	-13%	0%	45%[46.1 µM]
COc1cc(OC)cc(C(=O)Nc2ccc(S(=O)(=O)Nc3cc(C)nc(C)n3)cc2)c1	0%	-43%	-0.6%&-0.6%	-5%&3%	x	28%	16%[46.1 µM]	-15%&-15%[46.1 µM]
Cc1cn2c(=O)c(S(=O)(=O)NCCc3ccc(Cl)cc3)c(C)nc2s1	x	x	-0.1%	-3%	x	-4%	7%[46.1 µM]	x
CCCCc1nc2cc(C(=O)NCc3cc(C)n(C)n3)ccc2o1	2%	-10%	x	x	24%	34%[activator]	x	x
Cc1ncc(S(=O)(=O)C(C)(C)C)c(N)n1	0%	4%	x	x	-2%	-11%	-12%	6%
Nc1cccc(C(=O)Nc2ccc(N)cc2Cl)c1	-6%	-3%	2.4%	8%	12%	27%	3%	u
CCCCN(CC)CCNS(=O)(=O)c1ccc2c(c1)oc(=O)n2C	-7%	-2%	1.8%	4%	15%[3.69 µM]	8%	u	15%
CCN(CC)P(=O)(Nc1ccccc1Br)c1ccc(N(C)C)cc1NC(=O)c1ccco1 (stereo not drawn)	1%	x	x	x	16%	u	-17%[46.1 µM]	u
Cc1ccccc1Cn1nnc2sc3c(c2c1=O)CCCC3	x	x	-6.8%	-4%	x	-9%	-7%[46.1 µM]	15%[46.1 µM]
CCc1ccc(-c2cc(C(=O)Nc3c(C)n(C)n(-c4ccccc4)c3=O)c3ccccc3n2)s1	-14%	2%	-1.3%	u	-7%	-6%	u	u
CCOC(=O)N1CCc2c(sc(NC(=O)CN3CCOCC3)c2C#N)C1	1%	8%	x	x	-1%	-23%	-5%	u
COc1ccc(C(=O)C2CCCN(C(=O)c3noc4c3CCCC4)C2)c(C)c1 (stereo not drawn)	-1%	-5%	x	x	-11%	-27%	u	u
Cc1ccc(S(=O)(=O)Cn2cnnn2)cc1	-3%	2%	0.2%	8%	-12%	9%	2%	u
COc1ccc(-c2nc(CS(=O)(=O)CC(=O)NCc3ccccc3Br)c(C)o2)cc1	6%	-6%	-15%	3%	-1%	-21%&-3%	x	u
O=C(c1ccc(Cl)nc1)c1cccs1	2%	1%	x	x	-4%	-14%	16%	-3%
CC(C)(C)c1cc(CN2CCOCC2)c(C(=O)O)o1	2%	2%	-1.2%	-6%	15%	0%	7%	25%
CCC(C)NS(=O)(=O)c1ccc(NC(=O)C(Sc2ccccc2)c2ccccc2)cc1 (stereo not drawn)	-15%	18%	-7.9%	-7%	6%	-14%	13µM*	u
CC(C)(C)NC(=O)C(c1ccccn1)N(C(=O)c1csnn1)C1CCCC1 (stereo not drawn)	0%	5%	x	x	1%	12%	2%	u
O=C(c1ccco1)N1CCN(C(=O)c2ccc(COc3ccc(Cl)cc3Cl)o2)CC1	x	x	x	x	2%	u	13µM*	u
CCOc1ccc(OCCC(=O)NNC(=O)c2nn(C)c(=O)c3ccccc23)cc1	-3%	-2%	x	x	1%	-23%	0%	0%

The list goes on:
SMILES	SARS PLpro yeast	NS1 inh	Cruzain inh Det	Cruzain noTriton	RE007 growth inh	2A StopGo	LASV entry inh	Marburg entry inh
S=C(NCCc1ccccc1)Nc1ccc(Cl)cc1	6%	-20%	-9.2%	14%	-17%	35%[activator]	4%	20%
CC1(c2ccccc2)NC(=O)N(CC(=O)Nc2ccc(Cl)c(S(=O)(=O)N3CCCCC3)c2)C1=O (stereo not drawn)	-1%	4%	x	x	9%	-13%	u	u
CCc1ccccc1NC(=O)c1cc(S(=O)(=O)NCCc2ccc(OC)c(OC)c2)ccc1F	x	x	3.2%	18%	x	u	u	x
COC(=O)Cn1cnc2scc(-c3ccc(C)c(C)c3)c2c1=O	-27%	-119%	x	x	2%	-17%	-25%[46.1 µM]	18%[46.1 µM]
COc1ccc(-c2nnc(SCC(=O)NC(=O)NCc3ccco3)o2)cc1	2%	6%	-1.9%	-7%	3%	6%	-1%	u
Cc1ncoc1C(=O)N1CCCC(N2CCN(c3ccccc3F)CC2)C1 (stereo not drawn)	0%	7%	x	x	7%	1%	-2%[46.1 µM]	0%[46.1 µM]
O=C(CNC(=O)c1ccccc1F)OCc1nc2ccccc2s1	0%	x	x	x	-12%	61%[activator]	u	u
Cc1csc(NC(=O)CCNC(=O)c2ccccc2Cl)n1	0%	x	x	x	7%	15%	20%	u
Cn1c(=O)oc2cc(S(=O)(=O)N3CCC(C(=O)NCc4ccccc4Cl)CC3)ccc21	6%	5%	5.1%	10%	2%	18%&-11%	u	2%&2%[46.1 µM]
Cc1cc(C)cc(NC(=O)C2CCCN(c3nnc(C)c4c(C)n(-c5ccccc5)nc34)C2)c1 (stereo not drawn)	x	x	-2.9%	11%	x	-22%	0%[46.1 µM]	x
CCNC(=O)Cc1c(OC)ccc2cc(Br)ccc12	13%	-3%	x	x	-7%	-9%	x	x
COc1cc(C(=O)NCC(=O)OCc2ccccc2Cl)cc(OC)c1OC	-1%	-5%	x	x	-7%	-18%	x	x
CCCCCCCCCCOC(=O)C[N+](C)(C)C/C=C(/C)Cl	-48%	-2%	1.4%	5%	-22%	u	5%	u
CC(C)OC(=O)c1ccc(NC(=O)CSc2nc(-c3cccs3)cc(C(F)(F)F)n2)cc1	x	x	-6.3%	2%	x	-28%	4%[46.1 µM]	-16%[46.1 µM]
N#CCN1CCCC(C(N)=O)C1 (stereo not drawn)	-1%	x	x	x	3%	-1%	-10%[46.1 µM]	-15%[46.1 µM]
Cn1cc(CN2CCC(CO)CC2)c(-c2ccc(Oc3ccccc3)cc2)n1	-1%	3%	x	x	5%	-4%	-12%[46.1 µM]	u

Rows are unselected. Share with any hit: about 4.6%.
